# Screens deposited in PubChem BioAssay by National Center for Advancing Translational Sciences (NCATS).
# Rango release inh: inhibitors of RanGTP-induced Rango-importin beta complex dissociation; hit rate 0.071% among 340,000; Potency, µM (doses to about 46.1 µM), for inactives: at the top dose activity change, negative = inhibition; Biochemical FRET Rango-importin beta, RanGTP-induced dissociation; O95149+P62826; active means falling FRET ratio curve, often poorly fitted, with flat reads before Ran was added; inconclusive means other falling curves, or compound fluorescence or quenching; inactive means flat or rising ratio curve;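 further: potency means the concentration at half of the fitted maximal effect; % of control where 0% means no effect; nearly all actives have a fitted effect of over 45% in size; -100% = wells without RanGTP and RCC1; the record marks most hits as doubtful in a second field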
#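 Rango FRET biosensor (snurportin-1 IBB flanked by N-terminal EYFP and C-terminal CFP10) at 0.1 uM, with 0.25 uM importin beta in PBS, 1mM DTT, 0.02% Tween-20, 0.1% BSA. 0.6 uM Ran, 2mM GTP and 0.2 uM RCC1 were then added for 45 min at room temperature. Inhibition read as loss of FRET rise.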
# Rango-impB inh: inhibitors of Rango-importin beta complex formation; Q14974; Rango CFP/YFP FRET sensor + importin beta, 45 min; Potency, µM (highest dose often 92.2 µM), for inactives: at the top dose inhibition of complex formation; hit rate 0.031% among 340,000; AID 540263; active = rising FRET ratio curve, often small or poorly fitted; inconclusive = mostly compound fluorescence or quenching in the first reads; inactive = flat curves in all reads;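 further: potency means the concentration at half of the fitted maximal effect; 0% = DMSO wells and 100% = buffer wells lacking importin beta; nearly all actives have a fitted effect of over 15% in size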
# Target sequence (Q14974 whole entry, looked up): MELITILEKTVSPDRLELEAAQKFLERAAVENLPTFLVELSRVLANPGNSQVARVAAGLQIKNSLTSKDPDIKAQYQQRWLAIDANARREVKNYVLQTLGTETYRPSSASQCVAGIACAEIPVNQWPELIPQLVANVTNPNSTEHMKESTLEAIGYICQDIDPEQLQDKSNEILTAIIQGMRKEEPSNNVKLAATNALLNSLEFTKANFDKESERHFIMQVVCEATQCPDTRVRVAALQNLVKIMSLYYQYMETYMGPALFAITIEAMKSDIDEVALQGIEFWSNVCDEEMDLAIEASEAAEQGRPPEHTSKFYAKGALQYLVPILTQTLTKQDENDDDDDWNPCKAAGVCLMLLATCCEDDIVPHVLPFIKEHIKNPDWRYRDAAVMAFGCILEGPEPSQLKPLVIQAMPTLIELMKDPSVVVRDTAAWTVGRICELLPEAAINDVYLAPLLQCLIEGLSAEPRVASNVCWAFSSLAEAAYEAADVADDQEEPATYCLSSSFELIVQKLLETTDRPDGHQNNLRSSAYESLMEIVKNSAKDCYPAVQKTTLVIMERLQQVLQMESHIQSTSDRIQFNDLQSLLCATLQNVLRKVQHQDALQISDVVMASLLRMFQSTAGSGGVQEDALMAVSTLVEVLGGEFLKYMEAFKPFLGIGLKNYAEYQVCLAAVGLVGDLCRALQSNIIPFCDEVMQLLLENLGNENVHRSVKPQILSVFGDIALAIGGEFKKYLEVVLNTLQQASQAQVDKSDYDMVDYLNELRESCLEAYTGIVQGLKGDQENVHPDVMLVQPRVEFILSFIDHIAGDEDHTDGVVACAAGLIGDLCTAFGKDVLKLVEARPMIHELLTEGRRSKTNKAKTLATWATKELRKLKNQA
#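 FRET biosensor Rango (snurportin 1 IBB between N-terminal EYFP and C-terminal Cerulean), 50 nM in PBS/1 mM DTT/0.02% Tween-20/0.1% BSA, preincubated 5 min RT with compound; 0.125 microM importin beta added, 45 min RT, CFP/YFP FRET ratio read.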
# miR-21 reporter: raises the signal of a miR-21 reporter; HeLa miR-21 FLuc reporter, luciferase, 48 h; Potency, µM (highest dose often 38.3 µM), for inactives: top-dose reporter change, positive = more light; 340,000 tested, under 10 active; active = well fitted rising curve with a large enough effect; inconclusive = small, poorly fitted or top-dose-only effect; inactive = no such curve, though single readings can be large or run the other way;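 further: % of control where 0% means no effect; miR-21 action dims this reporter so a rising signal means less miR-21 action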
#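 Compounds were titrated across several concentrations (up to approximately 40 uM) and incubated 48 hours with HeLa miR-21-FLuc reporter cells (miR-21 target sequence downstream of FLuc, endogenous miR-21). Readout was firefly luciferase luminescence after lytic detection reagent.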
# GLA inh pH 4.5: inhibitors of human alpha-galactosidase A at pH 4.5. AID 1467. activity change, negative = inhibition, % at 105 µM. 230,000 tested, under 10 active. purified enzyme, 4-MU-alpha-Gal fluorescence, pH 4.5. P06280; inconclusive = small, poorly fitted or top-dose-only inhibition, or a rising curve; inactive = flat fitted curve, though single readings scatter; no compound was filed as active;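 further: 0% = full activity with enzyme and -100% = basal without enzyme; dose as in the result columns while the protocol names 77 µM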
# The depositor's hits bear a star; ? = inconclusive; · = not tested or not shown; & = joins results of further samples. A portion of the library; the hit share may differ from the screen's.
# Screens in order – Rango release inh, Rango-impB inh, miR-21 reporter, GLA inh pH 4.5
> C=CCn1c(SCC(=O)c2ccccc2)nnc1-c1ccc2c(c1)OCO2
    -19.0%, -2.6%, -11.1%, 11.2
> O=C(CN1CCN(S(=O)(=O)/C=C/c2ccccc2)CC1)NC(=O)NCc1ccco1
    6.6%, 0.1%, -6.2%, -2.8
> COc1cc2c(cc1C1C(C#N)=C(N)OC3=C1C(=O)CC(C)(C)C3)OCO2 (configuration not stated)
    8.3%, 0.0%, -4.4%, ·
> COC(=O)c1ccc(S(=O)(=O)N2CCc3ccccc32)cc1
    15.6%, -5.1%, 0.2%, ·
> CC(=O)Nc1cc(-c2ccccc2)ccc1O
    16.6%, -2.9%, -15.8%, -5.5
> CCN(CC)CCNc1ccc(C)c2sc3ccc(O)cc3c(=O)c12
    2.3%, 0.9%, ·, ·
> Cc1ccc(C)c(N(CC(=O)N2CCCC2)S(C)(=O)=O)c1
    -0.6%, -1.4%, 2.1%, ·
> Nc1ccc(Br)cc1-c1nc2ccccc2[nH]c1=O
    6.1%, 10.1%, -16.4%, -4.6
> CCC1CCCCN1S(=O)(=O)Cc1ccccc1Cl (configuration not stated)
    1.2%, 2.3%, 1.8%, 3.4
> CC(=O)Nc1ccc(S(=O)(=O)N2CCC(NC(=O)C(Cc3ccccc3F)NC(C)=O)CC2)cc1 (configuration not stated)
    18.9%, -1.3%, 0.5%, ·
> COc1cc2nc(CN(C)Cc3ccc(OC)c(OC)c3OC)[nH]c(=O)c2cc1OC
    -10.1%, 3.2%, -27.3%, -0.3
> O=C(Nc1ccc(F)cc1)C1CCCN1S(=O)(=O)c1ccc(Br)cc1 (configuration not stated)
    3.1%, 1.0%, 5.2%, ·
> CC(C)c1nc(SCC(=O)Nc2cccc(C(=O)O)c2)c2c3c(sc2n1)CCCC3
    3.9%, -1.0%, -22.9%, ·
> CCN(CC(=O)NCc1ccc(F)cc1)S(=O)(=O)c1ccc(Cl)s1
    5.2%, -1.8%, ·, ·
> C/C(N)=C(/C#N)C(=O)CSc1nc2ccccc2c(=O)n1-c1ccc(C)cc1
    ·, ·, -4.1%, -3.0
> COc1ccc2cc3cc(C(=O)NCc4ccco4)oc3nc2c1
    -11.1%, -3.0%, -3.4%, 27.5
> O=C1NC(=O)C2(COC(c3ccccc3Cl)OC2)S1 (configuration not stated)
    -12.2%, -0.9%, -8.5%, 0.8
> CN1CCN(C(=O)C2=C[C@@H](C3CCCCC3)C[C@@H](OCCCCO)O2)CC1
    -5.4%, -0.5%, 0.1%, -1.1
> O=C(/C=C/c1ccc([N+](=O)[O-])cc1)c1cccnc1
    -16.4%, -4.1%, 0.3%, 7.4
> CN(C/C(O)=C(\C#N)c1ccccc1)C1CCCCC1
    -4.2%, -0.6%, -4.7%, -2.3
> CCOc1ccc(NC(=O)NCCCCc2ccccc2)cc1
    -5.6%, 0.7%, 2.9%, ·
> CC1=C(C(=O)OCc2ccccc2)C(c2ccc([N+](=O)[O-])cc2)NC(=O)N1CCCCCC(=O)O (configuration not stated)
    16.4%, -1.6%, -13.1%, -3.1&-3.0
> CCCCCn1c(SCc2ccncc2)nc2cc(C(=O)NCc3ccco3)ccc2c1=O
    -18.7%, -0.3%, -3.4%, 3.0
> Cc1ncsc1C(=O)N1N=C2/C(=C/c3ccccc3)CCCC2C1c1ccccc1 (configuration not stated)
    -11.8%, -4.0%, 18.5%, -0.7
> O=C(NCc1n[nH]c(=S)n1-c1ccccc1)c1ccco1
    -0.6%, -4.3%, 1.0%, 0.1
> Cc1cc(=O)oc(C)c1C(=O)Nc1cnc2ccccc2c1
    ?, ?, -11.2%, 0.0
> CC(=O)Nc1cccc(OCc2cnc(Cl)s2)c1
    -11.9%, -3.3%, -26.3%, -0.2
> CCOC(=O)Cn1c2ccccc2c2nc(C)sc21
    16.8%, -3.3%, 3.4%, -3.1
> COc1ccc(F)cc1C(=O)C1CCCN(Cc2ccc3c(c2)OCCO3)C1 (configuration not stated)
    25.0%, 0.8%, -3.6%, -4.7
> CCOc1ccccc1CN1CCN(Cc2csc(C(C)=O)c2)CC1CCO (configuration not stated)
    7.0%, 0.7%, -2.4%, 6.5

# Going on with the list:
# Screens in order – Rango release inh, Rango-impB inh, miR-21 reporter, GLA inh pH 4.5
> CC(NC(=O)c1ccc([N+](=O)[O-])o1)C12CC3CC(CC(C3)C1)C2 (configuration not stated)
    8.3%, 4.4%, 5.6%, ·
> Cc1cc(C)n2nc(SC(C)C(=O)NCc3ccco3)nc2n1 (configuration not stated)
    5.9%, 0.7%, -5.3%, 8.8
> COc1ccc(-c2c(C)sc(NC(=O)c3ccnn3C)c2C#N)cc1
    -15.3%, -5.1%, -30.8%, 1.3
> Cc1nnc(NC(=O)C(C)Sc2nnc(CCNC(=O)c3ccccc3F)n2C)s1 (configuration not stated)
    -0.5%, -2.8%, 10.1%, ·
> C=CCOc1ccc(C(=O)NC2CCCCC2)cc1
    -2.8%, 0.3%, -52.3%, 5.2
> CCOC(=O)c1c(C)c(C(=O)NC2CCCCC2)c(C)n1CC
    -3.4%, 5.2%, -5.6%, 5.6
> Cc1ccccc1OCC(=O)N1CCc2ccccc2C1
    15.9%, -0.4%, -40.7%, ·
> COC(=O)c1sc(-c2ccccc2)cc1NC(=O)c1ccc(F)cc1
    2.1%, 1.7%, 0.8%, 11.3
> O=C1CCc2cc(S(=O)(=O)Nc3ccccc3F)ccc2N1
    13.0%, -1.1%, ·, ·
> COCCn1c(=S)[nH]c2ccc(N(C)C)cc2c1=O
    ?, ?, -11.9%, -6.9
> C#CCN1[C@@H]2CCN(C2)c2cc(Br)ccc2S1(=O)=O
    -13.8%, -1.2%, ·, ·
> Cc1ccc(S(=O)(=O)N2CCCC(C(=O)NCc3ccco3)C2)cc1Cl (configuration not stated)
    4.4%, -1.3%, -9.8%, -1.7
> COc1ccc(Cl)cc1NC(=O)c1nc2nc(C)cc(C(F)F)n2n1
    -0.2%, 0.4%, -2.3%, 0.6
> CC1CCCCC12NC(=O)N(CC(=O)N1CCN(c3ncccn3)CC1)C2=O (configuration not stated)
    -0.9%, -3.7%, ·, ·
> O=C1/C(=C/c2cccc(F)c2)SC(=S)N1NS(=O)(=O)c1ccccc1
    10.5%, 1.0%, -1.6%, ·
> COc1ccc(CC(=O)NNC(=O)COc2ccc(Br)cc2C)cc1OC
    -20.0%, -1.8%, -2.8%, 6.8
> O=C(OCC(=O)N1CCCCCC1)c1ccc(F)cc1F
    -0.4%, -3.4%, ·, ·
> CN1C(=O)c2ccccc2C(C(=O)O)C1c1cccc([N+](=O)[O-])c1 (configuration not stated)
    2.2%, -1.1%, 0.0%, 1.4
> O=C(N/N=C/C=C/c1ccc([N+](=O)[O-])cc1)C1COc2ccccc2O1 (configuration not stated)
    -3.8%, 1.0%, 1.5%, -27.9
> CCOC(=O)c1nn(-c2ccccc2)c(C)c1C(C)=O
    0.4%, -0.2%, -2.8%, -2.6
> Cc1cccc(C)c1NC(=O)Cn1nnc(C(=O)Nc2ccc(F)cc2F)c1N
    2.9%, -3.0%, -2.5%, ·
> Nc1ncc(Br)cc1S(=O)(=O)NCCC(=O)NC1CCCCC1
    3.2%, 0.1%, 2.0%, ·
> CC(CCc1ccccc1)NC(=O)c1ccco1 (configuration not stated)
    -6.5%, -0.8%, -3.9%, -1.4
> O=C(c1cnn(-c2cccc(F)c2)c1)c1ccccc1O
    -8.0%, -2.5%, -76.0%, ·
> CC(C)CSc1nc(N)nc2c1ncn2C1OC(CO)C(O)C1O (configuration not stated)
    -12.1%, -1.4%, ·, ·
> N#CC1=C(N)C(C#N)(C#N)C(c2cccnc2)C2CCCC=C12 (configuration not stated)
    ·, ·, 13.1%, 5.0
> O=c1[nH]c(=S)[nH]c2scc(-c3ccc(Br)cc3)c12
    -0.9%, -2.1%, ·, ·
> c1ccc(OCc2nn3c(C4CCCCC4)nnc3s2)cc1
    -9.5%, 9.5%, -0.8%, 8.1
> CCN(CC(=O)NNC(=O)c1ccccc1)Cc1ccc(OC)c(F)c1
    -7.7%, -1.0%, ·, ·
> COc1cccc(/C=N/NC(=O)CCCC(=O)NC2CCCCC2)c1
    0.6%, 2.3%, 0.1%, 1.7

# Remaining list, next part:
# Screens in order – Rango release inh, Rango-impB inh, miR-21 reporter, GLA inh pH 4.5
> O=C(NC1CCCCC1)C1CC(=O)N(c2ccccc2)C1 (configuration not stated)
    -12.2%, 0.4%, -9.4%, ·
> O=C(O)/C=C/C(=O)NCCc1ccccc1
    24.3%, 1.9%, 0.2%, -11.3
> O=C(NC(Cc1ccccc1)C(=O)O)/C(=C/c1ccco1)NC(=O)c1cccc(Br)c1 (configuration not stated)
    -23.2%, ?, -7.3%, 3.7
> N#C/C(C(=O)NCCc1ccccc1)=C1/N=C(NC(=O)c2cccs2)c2ccccc21
    ?, ?, -34.1%, 4.1
> O=C(Nc1ccc(S(=O)(=O)Nc2ncccn2)cc1)c1cccnc1
    -4.8%, 0.1%, -47.8%, -13.3
> O=C(N/N=C/c1c(F)cccc1Cl)c1cc(C2CC2)[nH]n1
    4.5%, 1.7%, -42.2%, ·
> O=C(CCNS(=O)(=O)c1cccs1)N1CCc2ccccc2C1
    -0.1%, -0.8%, -44.2%, -21.5
> Cn1cnnc1SCCn1c(N2CCCCC2)nc2c1c(=O)[nH]c(=O)n2C
    15.8%, -1.4%, -9.5%, -1.6
> O=C1OC[C@@H]2CCCN2C(=O)[C@@H](CC(=O)N(CCO)Cc2ccccc2)C/C=C\C[C@@H]1Cc1ccc(F)cc1
    -3.4%, 1.8%, ·, ·
> COc1cc(-c2cc(C(=O)O)c3c(OC)c(OC)c(OC)cc3n2)ccc1O
    13.1%, 0.0%, -2.9%, -4.9
> Cc1ccc(-c2nc3ccccn3c2NCc2ccc3c(c2)OCO3)cc1
    -19.9%, ?, -28.9%, 0.0
> COC(=O)c1cccc(C23CC4(C2)[C@H](CN(Cc2ccc(C(F)(F)F)cc2)[C@@H]4c2ccccc2)C3c2ccc(Cl)nc2)c1 (some centres not stated)
    -3.2%, -4.0%, 2.2%, -3.2&3.4
> Cc1nn(Cc2ccccc2)c2c1C(c1ccccc1)C(C#N)=C(N)O2 (configuration not stated)
    0.0%, -3.6%, -4.0%, -6.1
> Cc1ccc(C(=O)O)cc1NC(=S)NC(=O)C(c1ccccc1)c1ccccc1
    8.3%, 2.9%, -5.7%, -1.8
> CCOC(=O)N1CCN(C(=O)c2ccc(-n3c(=S)[nH]c4ccccc4c3=O)cc2)CC1
    -4.9%, 5.5%, -1.5%, 5.2
> O=C(CSc1nnc(NC(=O)C2CC(=O)N(c3ccccc3)C2)s1)NCc1ccco1 (configuration not stated)
    -1.2%, ?, -5.4%, ·
> CCC(C)C(NS(=O)(=O)c1ccc(C)cc1)C(=O)N1CCOCCOCCOCC1 (configuration not stated)
    -9.3%, -0.8%, 3.6%, ·
> Cc1cccc(OCC(=O)Nc2ccc3c(c2)nc(CCN2CCN(C)CC2)n3C)c1
    25.1%, -2.9%, -9.6%, 0.7
> O=[N+]([O-])c1nn(-c2ccc(Cl)cc2)n(O)c1=NCc1ccccc1Cl
    13.3%, 1.7%, -20.9%, 2.5
> CC1(C)C2CCC1(C)C(SC(=N)N)C2 (configuration not stated)
    -6.1%, 1.4%, ·, ·
> Nn1c(COc2cccc(Br)c2)nnc1SCC(=O)N1CCc2ccccc2C1
    -0.6%, 3.4%, -5.7%, 0.1
> CCN(CC(O)Cn1c2ccccc2c2ccccc21)S(=O)(=O)c1ccc(F)cc1 (configuration not stated)
    10.4%, 1.7%, 16.1%, -8.7
> Cc1ccc(C)c(Cn2nnc3c(=O)[nH]c(C4CCCN(C(=O)c5ccco5)C4)nc32)c1 (configuration not stated)
    13.1%, -1.9%, -0.6%, ·
> CCn1c(SCc2ccc(Cl)cc2Cl)nc2nc3c(cc2c1=O)CCCC3
    12.4%, 2.0%, -1.0%, 2.2
> O=C(O)c1cc(-c2ccccc2)nn1CC1CC(c2cccc([N+](=O)[O-])c2)=NO1 (configuration not stated)
    2.0%, 9.9%, ·, ·
> Cc1c(NC(=O)c2cc3ccccc3o2)c(=O)n(-c2ccccc2)n1C
    -11.7%, 0.3%, -0.6%, -4.0
